# Autofluor counter: flagged as autofluorescent in microsphere protease counterscreen; actives 3.1% (n = 360,000); compound autofluorescence counterscreen, microsphere flow cytometry; hits give high values; fluorescence intensity (concentration not given with the values);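 active = at least 3 SD above the mean of all compounds, about 16000 in these data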;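 note: 100 nL of 1 mM stock went into each well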
# PrP UTR inh: inhibition of PrP 5' UTR reporter expression; cell-based PrP 5' UTR mRNA reporter, plate reader; inhibition, % (test concentration not listed); actives 0.35% (n = 340,000);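 active = every replicate at 50% or more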;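 note: 0 = median of the neutral control wells; tested in H4 reporter cells; numbers are from one replicate; inactives centre near -14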
# * marks the source's active call; other numbers are inactive results.
SMILES,Autofluor counter,PrP UTR inh
CC(C)C[C@H]1CN=C(N(C)C)N1CCCCc1ccccc1,4278,-12
CO[C@H]1CC[C@@]2(C)[C@@H](CC[C@@H]3[C@@H]2CC[C@@]2(C)[C@H]3C[C@H](C(=O)N[C@@H](CCCN=C(N)N)C(=O)NCC(=O)N[C@@H](CC(=O)O)C(N)=O)O[C@]23CCCO3)C1,2941,-5
O=C(C[C@@H]1C/C=C/CCCC(=O)O[C@H](c2ccccc2)CNC1=O)N[C@H](CO)Cc1ccccc1,3843,2
O=C1CCSc2c1ccc1ccccc21,3261,-24
Cc1c(Cl)cccc1NC(=S)N=Nc1c(O)n(CN2CCOCC2)c2ccccc12,2844,24
O=c1[nH]c(=O)n(C(c2ccccc2)(c2ccccc2)c2ccccc2)cc1N(CCO)CCO,4396,-9
O=[N+]([O-])/C(Cl)=C(/NCCO)C(Cl)=C(Cl)Cl,2736,-13
COc1ccc([C@H]2CC(=O)C=C(/C=C/c3ccc(Cl)cc3)C2)cc1,3981,-31
CN(c1ccccc1)S(=O)(=O)c1ccc(NC(=O)CC(=O)c2ccccc2)cc1,4327,-32
O=C1CN(Cc2ccccc2)CC(=O)N1,3950,-18
C[C@H]1CN([C@@H](C)CO)C(=O)c2cccc(NS(=O)(=O)c3cn(C)cn3)c2O[C@H]1CN(C)S(C)(=O)=O,4116,-11
COc1cccc([C@@H]2CC=C(C(=O)O)CN2S(=O)(=O)c2ccc(C)cc2)c1,3524,-14
Cc1cccc(CCN2C(Nc3ccccc3)=NC[C@@H]2CC(C)C)c1,4142,-4
C/C(=N\NC(=O)c1cccc(S(=O)(=O)N2CCOCC2)c1)c1ccc(C)cc1,3790,-26
Cc1cc(=O)n(C(C)Cc2ccccc2)n1C(C)Cc1ccccc1 (centres undefined),3733,1
Cn1c(=O)c2[nH]c(C3CCC3)nc2n(C)c1=O,2993,-16
O=C(C[C@@H]1C/C=C\CCC(=O)OC[C@H](Cc2ccccc2)NC1=O)N[C@@H](CO)Cc1ccccc1,3322,-16
Cc1ncc(COCc2ccccc2)c(CO)c1OCc1ccccc1,3311,-69
COC(=O)C1=C(C)N(Cc2ccccc2)C(=NCC(C)C)N[C@H]1c1cccc(F)c1,3212,-21
COc1ccc(S(=O)(=O)N(C)C[C@H]2Oc3ccc(NC(=O)Nc4ccccc4)cc3C(=O)N([C@H](C)CO)C[C@@H]2C)cc1,3661,-6
Cc1ccc(S(=O)(=O)N2[C@@H](c3ccccc3F)C(C(=O)O)=CC[C@H]2c2cccc(C)c2)cc1,3750,-10
COc1ccc([C@H]2CC(=O)C=C(c3ccc4c5c(cccc35)CC4)C2)cc1,3875,-13
CCC1CN1P1(=O)OCC(C)([N+](=O)[O-])CO1 (centres undefined),3064,11
O=C1C=C(c2ccc(Cl)c(C(F)(F)F)c2)C[C@@H](c2ccc3c(c2)OCO3)C1,2966,3
CC1(C)O[C@@H]2C[C@H]3[C@@H]4CCC5=CC(=O)CC[C@]5(C)[C@@]4(F)[C@@H](O)C[C@]3(C)[C@]2(C(=O)CCl)O1,5226,-14

# (listing goes on)
SMILES,Autofluor counter,PrP UTR inh
O=C1NC[C@H](Cc2ccccc2)N(CC2CCN(CCc3ccc(-c4ccccc4)cc3)CC2)C1=O,3555,-16
Cc1cc(NC(=O)CN(C)CC(=O)Nc2ccc(Cl)cc2)no1,3952,-9
C[C@H](CO)N1C[C@H](C)[C@H](CN(C)Cc2ccccc2)Oc2ccc(NC(=O)Nc3ccc(F)cc3)cc2C1=O,3747,-8
O=C1[C@H](Cc2ccccc2)NCCCC[C@H](c2ccc(Cl)cc2)N1Cc1ccccc1,4249,-19
C#CCOCCOCCOCCNc1nc(N2CCN(C(=O)Cn3cc(CCCN=C(N)N)nn3)CC2)nc(N2CCN(C(=O)[C@H](C)n3cc(CCCN=C(N)N)nn3)CC2)n1,4243,-36
COC(=O)C1=C(c2ccc(-c3ccccc3)c(F)c2)C[C@@H]2CC[C@H]1N2C(=O)NC1Cc2ccccc2C1,3144,-24
CC1=C(O)C(=O)C=C2C1=CC=C1C2(C)CCC2(C)C3CC(C)(C(=O)O)CCC3(C)CCC12C (centres undefined),4419,24
CCC(CN(C)C)Oc1cc(NCc2ccccc2)c2ncn(C(C)C)c2c1 (centres undefined),4867,-22
O=C(O[C@H]1[C@H](Cc2ccccc2)NS(=O)(=O)[C@H]2C[C@@H]3C=C[C@]12O3)c1ccc([N+](=O)[O-])cc1,3672,17
O=C(OCc1ccccc1)N1CCC2CC1c1cc(-c3ccccc3)ccc12 (centres undefined),3640,-30
COC(=O)C1=C(c2ccc(OCc3ccccc3)cc2)C[C@@H]2CC[C@H]1N2C(=O)NCc1ccccc1,4165,-9
Cc1cc(C)c(S(=O)(=O)/N=C2/C=C(SCC(=O)O)C(=O)c3ccccc32)cc1C,4565,-32
CC[C@@H]1C(=O)[C@H](Cc2ccccc2)[C@H]2CCCC(=O)N3CC[C@@H]1[C@@H]23,3996,-14
C[C@H](O)[C@@H]1C(=O)N2CCc3ccc(-c4ccccc4)cc3[C@@H]2C[C@@H]1N(C)C(=O)c1ccc(C#N)cc1,3812,-11
COc1ccc(CC(=O)Nc2ccc(F)c(S(=O)(=O)N3CCOCC3)c2)cc1,3036,2
O=c1ccc2cc(O[C@@H]3O[C@H](CO)[C@@H](O)[C@H](O)[C@H]3O)c(O)cc2o1,5150,-17
Cn1nnnc1Sc1ncnc2scc(Br)c12,4163,-28
CCCCNC(=O)[C@@H]1CCCN1S(=O)(=O)c1cccc2cccnc12,4126,-25
O=C1C=C(N2CCN(c3ccccn3)CC2)C(=O)c2c(O)ccc(O)c21,2733,-32
C=CC[C@@H](CC(=O)N(CCO)Cc1ccccc1)C(=O)N[C@@H](C)COC(=O)[C@@H](CC=C)CC(=O)OC(C)(C)C,4088,10
Cc1ccc(S(=O)(=O)Nc2ccc3c(c2)C(=O)N([C@H](C)CO)C[C@H](C)[C@@H](CN(C)Cc2ccc(-c4ccccc4)cc2)O3)cc1,4155,-16
CC12CCC3C(CCC4CC(=O)CCC43C)C1CC(=NO)C2=O (centres undefined),2710,52*
COc1ccc(N2C(=O)N3[C@@H]4c5ccccc5OC[C@@H]4[C@@H](c4ccccc4)[C@@]3(C)C2=O)cc1,2900,-16
CC(C)NC(=O)CC(=O)N/N=C/c1c(F)cccc1Cl,2211,-17
ONC(=NCc1ccccc1)c1ccccc1,3503,-33

# 18 of the compounds above, with two lines to a compound.
# Under each structure: Autofluor counter | PrP UTR inh
- CO[C@H]1CC[C@@]2(C)[C@@H](CC[C@@H]3[C@@H]2CC[C@@]2(C)[C@H]3C[C@H](C(=O)N[C@@H](CCCN=C(N)N)C(=O)NCC(=O)N[C@@H](CC(=O)O)C(N)=O)O[C@]23CCCO3)C1
 : 2941 | -5
- O=C(C[C@@H]1C/C=C/CCCC(=O)O[C@H](c2ccccc2)CNC1=O)N[C@H](CO)Cc1ccccc1
 : 3843 | 2
- O=C1CCSc2c1ccc1ccccc21
 : 3261 | -24
- Cc1c(Cl)cccc1NC(=S)N=Nc1c(O)n(CN2CCOCC2)c2ccccc12
 : 2844 | 24
- O=c1[nH]c(=O)n(C(c2ccccc2)(c2ccccc2)c2ccccc2)cc1N(CCO)CCO
 : 4396 | -9
- O=[N+]([O-])/C(Cl)=C(/NCCO)C(Cl)=C(Cl)Cl
 : 2736 | -13
- COc1ccc([C@H]2CC(=O)C=C(/C=C/c3ccc(Cl)cc3)C2)cc1
 : 3981 | -31
- CN(c1ccccc1)S(=O)(=O)c1ccc(NC(=O)CC(=O)c2ccccc2)cc1
 : 4327 | -32
- O=C1CN(Cc2ccccc2)CC(=O)N1
 : 3950 | -18
- C[C@H]1CN([C@@H](C)CO)C(=O)c2cccc(NS(=O)(=O)c3cn(C)cn3)c2O[C@H]1CN(C)S(C)(=O)=O
 : 4116 | -11
- COc1cccc([C@@H]2CC=C(C(=O)O)CN2S(=O)(=O)c2ccc(C)cc2)c1
 : 3524 | -14
- Cc1cccc(CCN2C(Nc3ccccc3)=NC[C@@H]2CC(C)C)c1
 : 4142 | -4
- C/C(=N\NC(=O)c1cccc(S(=O)(=O)N2CCOCC2)c1)c1ccc(C)cc1
 : 3790 | -26
- Cc1cc(=O)n(C(C)Cc2ccccc2)n1C(C)Cc1ccccc1 (centres undefined)
 : 3733 | 1
- Cn1c(=O)c2[nH]c(C3CCC3)nc2n(C)c1=O
 : 2993 | -16
- O=C(C[C@@H]1C/C=C\CCC(=O)OC[C@H](Cc2ccccc2)NC1=O)N[C@@H](CO)Cc1ccccc1
 : 3322 | -16
- Cc1ncc(COCc2ccccc2)c(CO)c1OCc1ccccc1
 : 3311 | -69
- COC(=O)C1=C(C)N(Cc2ccccc2)C(=NCC(C)C)N[C@H]1c1cccc(F)c1
 : 3212 | -21

# More records follow.
SMILES,Autofluor counter,PrP UTR inh
COc1cc2c(cc1OC)C(=O)CCC2,3962,2
O=S1(=O)CCOC[C@H](Cc2ccccc2)N1Cc1ccccc1Br,2776,-8
CC1Cc2c([nH]c(=O)n(-c3ccccc3)c2=O)O1 (centres undefined),4389,-8
C#CCOCCOCCOCCNc1nc(N2CCN(C(=O)[C@H](CCCN=C(N)N)n3cc(C(N)[C@@H](C)CC)nn3)CC2)nc(N2CCN(C(=O)[C@H](CCC(=O)O)n3cc([C@@H](N)CCCCN)nn3)CC2)n1 (some centres undefined),4055,-17
COC(=O)C1=C(c2ccc(Cl)c(C(F)(F)F)c2)C[C@@H]2CC[C@H]1N2C(=O)N1CCC(O)(c2ccc(Cl)cc2)CC1,3897,-11
Cc1nc(Cl)sc1C(=O)Nc1ccc(F)cc1,3932,-31
CN(CCc1ccccc1)C(=O)c1cccc(NC(=O)Cc2cccc(NC(=O)C3CCN(C(=O)c4ccccc4)CC3)c2)c1,3958,-13
CCc1nc(SCC(=O)Nc2ccc(N(CC)CC)cc2)n[nH]1,2751,9
O=C(Nc1ccc(C(=O)N2CCCC2)cc1)C1CCCC1,3832,-18
O=c1[nH]c2c(c(=O)[nH]1)OCN(Cc1ccccc1)C2,3117,0
Cc1cc(-c2ccccc2)cc(=O)[nH]1,4110,-13
N#CC(C#N)=Cc1ccc(C=C(C#N)C#N)cc1,4296,-22
CC(C)C[C@@H](CN1CCCC1CN1C(=S)NC[C@@H]1Cc1ccc(O)cc1)N1C[C@H](Cc2ccccc2)N(CC2CCCCCC2)C1=S (some centres undefined),3510,-8
CCOC(=O)[C@H]1[C@H]2COc3cc(OC)ccc3[C@@H]2N2C(=O)c3cc(F)c(F)cc3NC(=O)[C@@]12C,3015,-12
CC(=O)c1cccc(OC(=O)Oc2cccc(C(C)=O)c2)c1,3182,2
Cc1ccc(N2C(=O)[C@@H]3[C@H](C2=O)C2c4ccccc4C=CN2[C@@H]3C(=O)c2ccco2)cc1 (some centres undefined),2706,6
CC[N+](CC)(CC)CCOc1ccc(/C=C/c2ccccc2)cc1,5934,-3
COc1cc([N+](=O)[O-])ccc1NC(=O)COC(=O)C1=NN(c2ccccc2)C(=O)CC1,3836,-3
Cc1nnc(NC(=O)CSc2nnc(CNC(=O)c3ccccc3F)n2C(C)C)s1,3611,-5
COc1ccc2sc(-c3ccc(SC)cc3)c(/C=C/c3ccc(OC)c(OC)c3)c2c1,4205,-8
c1ccc2c(c1)ccc1[nH]c3c(c12)CCCC3,3481,-4
C[C@]12CCC3C(CC[C@H]4C[C@H](O)CC[C@]34C)C1CC(=O)[C@@H]2O (some centres undefined),3672,0
C[C@@]12C(=O)Nc3ccc(Cl)cc3C(=O)N1[C@H]1c3ccccc3OC[C@@H]1[C@@H]2c1ccccc1,3177,-25
CCN1CCN(c2ccc(NC(=O)c3cc4ccccc4cc3OC)cc2C)CC1,3860,-15
O=C1C=C(c2cc(Cl)cc(Cl)c2)C[C@@H](c2ccc3c(c2)OCO3)C1,4073,-23

# (list continues)
SMILES,Autofluor counter,PrP UTR inh
O=[N+]([O-])c1ccc(Cl)c([N+](=O)[O-])c1,4495,-6
O=C(NC(=S)N1CCCC(O)C1)c1ccco1 (centres undefined),3867,-13
CC1(C)CC2CC(C)(CN2C(=O)COC(=O)c2cccc([N+](=O)[O-])c2)C1 (centres undefined),3311,-18
Cc1ccc(NC(=O)CCN2CCN(CCO)CC2)cc1,3900,-18
COC(=O)C1=C(c2ccc(C(C)=O)cc2)C[C@@H]2CC[C@H]1N2C(=O)NC1CC1,3892,-36
N#Cc1ccc(C2=CC(=O)C[C@H](c3ccc(Cl)cc3)C2)cc1,2797,-2
CC(=O)OCC1OC(n2c(-c3ccc(Cl)cc3)ccc(C#N)c2=S)C(OC(C)=O)C(OC(C)=O)C1OC(C)=O (centres undefined),3644,-42
CC1=C(C)/C(=N\OS(=O)(=O)c2ccc(C)cc2)C=CC1=O,1830,-22
COC1=C(NCc2ccc3c(c2)OCO3)C(=O)C(OC)=C(NCc2ccc3c(c2)OCO3)C1=O,3773,-12
CCCCCCSc1ccc([C@@H]2[C@@H]3C(=O)N(CC)C(=O)[C@@H]3[C@]3(C(=O)OC)CCCCN23)cc1OC,4845,-1
CCn1nnnc1SCC(=O)N(C)C1CCS(=O)(=O)C1 (centres undefined),3578,-17
CN(C)/C=N/c1c(C#N)cnn1-c1ccc(C(F)(F)F)cn1,9562,-28
COC(=O)C1=C(c2ccc(C(C)=O)cc2)C[C@@H]2CC[C@H]1N2C(=O)NCCOc1ccccc1Cl,3902,-21
CC(=O)OCC1OC(n2c(S)c(C#N)c(-c3ccccc3)c(C#N)c2=O)C(OC(C)=O)C(OC(C)=O)C1OC(C)=O (centres undefined),3248,-5
C[C@H](NC(=O)c1nc[nH]c1C(=O)NCc1ccc(CNC(=O)OC(C)(C)C)cc1)C(=O)OCc1ccccc1,3594,-19
COc1ccc([C@H]2CC(=O)C=C(c3cc(Cl)ccc3C)C2)cc1,3732,-19
COc1ccc([C@H]2CC(=O)C=C(c3cc(F)ccc3OC)C2)cc1,4128,-14
CC(=O)Nc1cccc(OCCCOc2cccc([N+](=O)[O-])c2)c1,3317,-47
CCn1cc(/C=C2\SC(=O)N(CC(=O)Nc3ccc4c(c3)OCO4)C2=O)c2ccccc21,3223,-23
CCOC(=O)c1[nH]c2c(OCC)nc(OCC)nc2c1Br,3708,-7
CC(C)(C)OC(=O)C[C@H]1C/C=C\C[C@@H](CC(=O)N[C@H](CO)Cc2ccccc2)C(=O)N2CCC[C@H]2COC1=O,3599,-34
O=C1NCCO1,5654,-31

# Screening results: PubChem BioAssay, several laboratories

# Only part of the results is shown. The share of hits here may be higher or lower than overall.
